High-throughput results (PubChem BioAssay)
Rce1 inhib = inhibitors of yeast Ras-converting enzyme; Q03530; yeast membranes, quenched prenylated peptide cleavage fluorescence; calls only; 290,000 tested, 0.27% active;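 active means fall in fluorescence gain of 50% or more versus controls, with final raw signal at or below 3038400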;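 further: plate controls were neutral control wells for no effect and wells lacking membranes for full effect; tested at 10 µM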
UUG fidelity = alters start codon recognition fidelity in yeast; S. cerevisiae UUG-firefly luciferase reporter, luminescence/redox ratio; activity score, % at 18.7 µM; 350,000 tested, 0.13% active; AID 602363;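 active means replicate mean at a twofold rise or more, about +100% in these data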;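 further: firefly luciferase made from a UUG start codon reports start codon fidelity; reporter light over untreated wells divided by growth signal over untreated wells; some hits fall short of that in this replicate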
PABP FP inh = PABP-poly(A) binding inhibition | PABP-poly(A) RNA binding, fluorescence polarization | inhibition, % at 35 µM | 290,000 tested, 1% active;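 active means 50% or more with normal probe brightness, or confirmed in later tests; about a fifth of its hits are not listed in these tables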;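 further: calls also rest on retests at 20 µM and on dose response follow-up; controls were probe without protein and protein plus probe with vehicle; some compounds called inactive have numbers as strong as hits; many hits fall short of the cut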
Target sequence (P11940 whole entry, looked up): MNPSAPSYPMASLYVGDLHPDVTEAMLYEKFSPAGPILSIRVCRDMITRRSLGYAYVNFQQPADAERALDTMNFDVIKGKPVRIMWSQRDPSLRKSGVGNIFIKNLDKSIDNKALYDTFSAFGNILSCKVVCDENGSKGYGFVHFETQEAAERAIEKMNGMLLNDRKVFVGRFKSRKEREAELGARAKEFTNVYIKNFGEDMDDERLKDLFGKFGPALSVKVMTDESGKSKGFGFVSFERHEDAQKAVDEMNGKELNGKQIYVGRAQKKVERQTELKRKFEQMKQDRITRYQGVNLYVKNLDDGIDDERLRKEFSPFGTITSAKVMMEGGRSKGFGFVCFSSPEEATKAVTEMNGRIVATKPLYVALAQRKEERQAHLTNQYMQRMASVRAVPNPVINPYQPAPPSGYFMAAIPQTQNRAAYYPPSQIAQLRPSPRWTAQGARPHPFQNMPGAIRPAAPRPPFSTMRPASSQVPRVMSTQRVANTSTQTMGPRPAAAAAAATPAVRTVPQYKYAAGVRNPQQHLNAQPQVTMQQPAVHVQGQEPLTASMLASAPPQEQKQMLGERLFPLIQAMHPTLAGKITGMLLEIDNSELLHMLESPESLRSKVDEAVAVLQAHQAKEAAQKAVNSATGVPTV
CSC inhib = blocks cancer stem cells; cancer stem cell-like cells viability, luminescence; inhibition, % at 7.5 µM; 300,000 tested, 1.1% active; AID 2717;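 active means mean at 75% or more and at least half the replicates too; tested in HMLE shEcad cells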;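 further: 0% = median of negative and 100% = median of positive control wells; the first replicate is given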
MT1-MMP act inh = inhibitors of human MT1-MMP activation | GFP/RFP ratio change, % at 20 µM | AID 651647 | 360,000 tested, 0.061% active | HT1080 RFP-PRO-GFP cells, GFP/RFP ratio fluorescence, overnight; percent of plate control window, DMSO zero | P50281;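 active means GFP/RFP ratio change of at least 30% with cell ATP level not reduced by more than half and red fluorescence within 50% of control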; further: strong numbers were not always called active
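Material – HT1080 RFP-PRO-GFP cells · Control set – DMSO wells and RFP-L50D-GFP cells · Incubation – overnight cell settling, then overnight compound exposure, 37 °C, 5% CO2 · Compound dosing – single-point 20 µM compound, 1% DMSO · Read-out – GFP/RFP fluorescence ratio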
eIF4H FP inh = inhibitors of RNA binding by human eIF4H | 290,000 tested, 0.94% active | inhibition, % at 35 µM | eIF4H fluorescence polarization binding assay | Q15056;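 active means 50% or more with normal probe brightness, or confirmed in later tests; about a fifth of its hits are not listed in these tables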;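 further: calls also rest on retests at 20 µM and on dose response follow-up; 0% = protein and probe with vehicle and 100% = probe without protein; strong numbers were not always called active; many hits fall short of the cut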
Env fusion inh = blocks HIV Env-driven cell-cell fusion | 360,000 tested, 1.1% active | HeLa-JRFL Env/CEM21 cell fusion, luciferase | AID 651610 | inhibition, % at 12.3 µM;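 active means mean replicate inhibition score of at least 50 and every replicate individually at or above 50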;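 further: 0% = plate neutral controls and 100% = maraviroc near 300 nM; one replicate is shown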
MT1-MMP act inh RFP = recorded beside MT1-MMP act inh, whose call it bears; RFP signal change, %; measured here: RFP expression control read;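 0 = vehicle wells; hits needed this value within 50% of zero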
* hit, by the source's call; i = inactive; / = no result given; + = active, no number; & = joins results of further samples. These rows are one share of the data, so the mix of outcomes need not match the whole.

Each structure is followed by: Rce1 inhib	UUG fidelity	PABP FP inh	CSC inhib	MT1-MMP act inh	MT1-MMP act inh RFP	eIF4H FP inh	Env fusion inh
1) COc1ccc(NC(=O)Cn2c(C)cc(=O)c3cccc(OC)c32)cc1
→ i	-11	4	-3	5	3	2	28
2) Cc1noc(C)c1COC(=O)Cc1ccc(Br)cc1
→ i	/	-2	2	2	0	6	7
3) O=S(=O)(NCc1ccccn1)c1cc(C(F)(F)F)ccc1Cl
→ i	-8	-8	9	-1	2	0	0
4) O=C1CC(N2CCN(c3nc4ccccc4s3)CC2)C(=O)N1c1cccc(F)c1 (stereo not given)
→ i	-6	4	/	-2	3	-3	-2
5) Cc1ccc2c(c1)nnn2C1CCN(CC(=O)Nc2ccc(F)cc2)CC1
→ i	2	3	-12	4	-4	-5	3
6) COc1cc(NC(=O)CSc2nnc(NC(C)C)s2)cc(OC)c1OC
→ i	-23	0	-3	-1	-9	6	2
7) COc1ccc(-c2cc(C(F)(F)F)nc(-n3cncn3)n2)cc1
→ i	-3	4	-9	-1	-6	3	-27
8) CCOC(=O)C1(Cc2ccccc2)C(=O)N(CCCN(C)C)c2ccccc21 (stereo not given)
→ i	-1	/	0	-6	-1	/	9
9) Cc1cn(Cc2ccccc2Cn2cc(C)c(=O)[nH]c2=O)c(=O)[nH]c1=O
→ i	-1	-15	-5	4	7	0	-2
10) CC(=O)Nc1cc[n+](C(C)C(=O)c2ccc(Br)cc2)cc1 (stereo not given)
→ i	/	-2	11	7	-2	-8	3
11) Cc1ccc(NC(=O)C2CSC3(C)CCC(=O)N23)cc1S(=O)(=O)N1CCCCCC1 (stereo not given)
→ /	0	/	44	5	-14	/	/
12) COc1ccccc1CNC(=O)c1ccccc1N
→ +	1	4	/	-3	5	5	/
13) Cc1cccc(C)c1NC(=O)CS(=O)CC(=O)Nc1ccc(F)cc1F (stereo not given)
→ i	-24	-3	-5	3	6	-18	-102
14) O=C(Cc1c[nH]c2ccccc12)NCc1ccncc1
→ i	-19	7	/	-8	-6	-2	2
15) COc1ccc(OC)c(CCNC(=O)CC2Oc3ccc(C)cc3NC2=O)c1 (stereo not given)
→ /	-14	7	/	8	4	-9	-236
16) COC(=O)c1ccc(-c2nc(CN3CCC(C(=O)N4CCOCC4)CC3)c(C)o2)cc1
→ i	9	10	-7	3	6	7	/
17) CCOc1ccccc1N(CC(=O)OC)S(=O)(=O)c1ccccc1
→ i	3	-2	13	7	8	4	-5
18) CC(=O)c1ccc(NC(=O)CSc2nc3[nH]c(=O)cc(O)c3s2)cc1
→ /	-8	/	/	-6	-2	/	30
19) COc1ccccc1NC(=O)c1ccc(Cl)c(S(=O)(=O)N2CCOCC2)c1
→ i	-21	1	-15	10	0	6	/
20) COc1ccc(CNS(=O)(=O)c2ccc(-c3ccc(=O)[nH]n3)s2)cc1OC
→ i	-5	4	0	5	-3	-3	3
21) O=C(NC1CCCCC1)c1cc2nc3c(c(C(F)(F)F)n2n1)CCCC3
→ i	6	8	12	2	2	7	/
22) CCCOc1ccc(C(=O)NC(=S)Nc2nc(C)c(C(=O)N(C)C)s2)cc1
→ i	-13	-4	-11	4	2	-1	/
23) Cc1cnc(=O)[nH]c1SCc1ccc(C(F)(F)F)cc1
→ i	0	/	-2	5	1	/	15
24) CC(C)c1ccc(NC(=O)C2CC2c2ccccc2)cc1 (stereo not given)
→ i	-8	13	-28	-1	-1	-2	-1
25) N#CCCc1cccc(CCC#N)c1
→ i	-7	4	0	1	-1	5	-26
26) CC(C)Nc1cc(N2CCCC2)ccc1[N+](=O)[O-]
→ i	-16	3	-7	6	3	3	/
27) O=C1Nc2ccccc2S/C1=C/c1cccs1
→ i	-19	-1	0	-7	1	8	-110
28) C[C@H](O)[C@@H]1C(=O)N2CCc3ccc(N4CCN(C)CC4)cc3[C@@H]2C[C@@H]1N(C)C(=O)c1ccco1
→ /	-19	/	/	-1	0	/	-22
29) O=C(O)CC1S/C(=N/N=C/C=C/c2ccccc2)NC1=O (stereo not given)
→ i	-15	-6&7	-12&4	3&-2	3&2	-2&3	17&6
30) CCOc1ccc(N(CC(=O)N2CCCCC2)S(=O)(=O)c2ccc(Cl)cc2)cc1
→ i	-9	9	-14	-4	-2	-7	12
31) O=C(C1CCC(CNc2c(N3CCCCC3)c(=O)c2=O)CC1)N1CCN(c2ccccn2)CC1 (stereo not given)
→ i	6	-18	6	0	5	-14	-5
32) CCOc1ccc(/C(C)=N/NC(=O)C(OC)c2ccccc2)cc1 (stereo not given)
→ i	/	8	2	-5	-2	0	-9
33) COc1ccc(NC2CCCN(C(=O)c3ccccc3C(F)(F)F)C2)cc1 (stereo not given)
→ i	-12	1	5	-10	-2	0	-9
34) CCCN1CCN(C(=O)c2ccc(F)c(S(=O)(=O)N3CCOCC3)c2)CC1
→ /	-12	/	-16	0	-2	/	/
35) CC(=O)NCCc1nc2ccccc2n1Cc1ccc(C)cc1
→ i	-18	5	-8	0	3	1	15
36) O=C1CC(N2CCN(Cc3ccc4c(c3)OCO4)CC2)C(=O)N1c1cccc2ccccc12 (stereo not given)
→ i	-5	11	-4	2	-1	-4	13
37) COc1cc(Cl)cc(/C=N\NC(=O)c2ccc3c(c2)OCO3)c1O
→ /	6	/	/	12	-7	/	-18
38) CCc1ccc2nc(N=C(N)N)nc(C)c2c1
→ i	/	-5	17	-17	-14	-1	5
39) CCCCCCCCCS(=O)(=O)Nc1cc(C)ccn1
→ i	-9	4	-19	-5	-2	2	4
40) Cc1cc(C)c(-n2c(O)c(C=NCCN3CCOCC3)c(=O)[nH]c2=O)c(C)c1
→ i	30	0	-9	3	5	-4	/
41) CCc1nc(SCC(=O)Nc2ccc3c(c2)OCCO3)c2oc3ccccc3c2n1
→ i	-15	4	44	3	-2	0	/
42) COC(=O)C1CN(C(=O)c2ccc(OC(F)F)cc2)c2ccccc2O1 (stereo not given)
→ i	-7	-4	-15	0	5	-7	-10
43) Cc1cc(C(F)(F)F)n(-c2nc(C(=O)NN)cs2)n1
→ i	/	-12	-2	3	-4	-6	-3
44) O=C(CN(c1ccc(F)cc1)S(=O)(=O)c1ccc2c(c1)OCCO2)NCC1CCCO1 (stereo not given)
→ i	-1	0	-1	-1	5	2	-40
45) O=C(Nc1nnc(-c2ccncc2)o1)c1cccc(N2C(=O)CCC2=O)c1
→ i	-18	-15	7	6	3	0	-8
46) CC1CCc2c(sc(NC(=O)c3nc4ncccn4n3)c2C#N)C1 (stereo not given)
→ i	3	-6	-4	4	1	1	-28
47) Cc1cc(NC(=O)CSc2nc3ccc(Cl)cc3[nH]2)no1
→ i	-10	-3	14	-4	-3	4	-11
48) CNc1ccc(-c2cc(OC)ccc2OC)cn1
→ /	-14	/	/	-1	3	/	-49
49) O=C(OCc1cn([C@H]2C[C@H](c3ccc(Cl)cc3)N(Cc3cccs3)C[C@@H]2O)nn1)c1ccccc1
→ /	11	/	/	-4	2	/	-24
50) Cc1ccc2[nH]c(C(=O)N/N=C/c3ccccc3C(=O)O)c(-c3ccccc3)c2c1
→ i	3	-3	/	1	-2	-2	10
51) O=C(NCCCCc1ccccc1)C1CC(c2cc(C(F)(F)F)cc(C(F)(F)F)c2)=NO1 (stereo not given)
→ i	-15	-2	1	3	-3	-2	31
52) CCc1nnc2n1N=C(c1ccc([N+](=O)[O-])cc1)CS2
→ i	-22	-7	-11	2	2	6	5
53) CCCCN(CC)CCNC(=O)Cn1cnc2sc(C)c(S(=O)(=O)N3CCC(C)CC3)c2c1=O
→ /	-16	0	-15	2	6	-3	6
54) C=CCNC(=O)C1CC1(c1ccc(C)cc1)c1ccc(C)cc1 (stereo not given)
→ i	-11	8	1	-3	-7	14	-1
55) O=C(Nc1nc(-c2ccccc2)cs1)c1cccc([N+](=O)[O-])c1C(=O)O
→ i	1	11	-1	-2	-1	-8	-2
56) COc1ccc(NCC(O)Cn2cnc3c2c(=O)n(C)c(=O)n3C)cc1 (stereo not given)
→ i	/	10	-13	-2	2	-2	19
57) CCCCN(C)C(=O)c1cn(-c2cccc(OC)c2)c(=O)c2ccccc12
→ i	-2	5	4	2	-1	1	12
58) O=C(Nc1ccc(-c2csnn2)cc1)C(Cl)(Cl)Cl
→ i	/	-14	3	0	-15	0	-3
59) CCn1ccnc1CN(C)Cc1cn(-c2ccc(C)cc2)nc1-c1cccc(C)c1
→ i	/	-4	-2	-4	-5	0	21
60) C[C@H](CO)N1C[C@H](C)[C@@H](CN(C)S(=O)(=O)c2ccc(C#N)cc2)OCc2cn(nn2)CCCC1=O
→ /	-18&8	/	/	1	4	/	-23

Next results:
Each structure is followed by: Rce1 inhib	UUG fidelity	PABP FP inh	CSC inhib	MT1-MMP act inh	MT1-MMP act inh RFP	eIF4H FP inh	Env fusion inh
61) Cc1ccccc1NC(=O)c1c(C)nc(SCC(=O)OCc2ccccc2)c(C#N)c1-c1ccc(F)cc1
→ i	/	-4	-8	-2	-1	-12	/
62) Clc1cncc(Cl)c1NNc1c2ccccc2nc2ccccc12
→ i	/	0	12	7	-4	-1	9
63) CCCn1c2ccc(F)cc2c2nnc(SCCN3CCOCC3)nc21
→ i	-18	5	-5	-4	-3	-8	13
64) CCOC(=O)c1ccc(NC(=S)N(CCN2CCCCCC2)Cc2cccs2)cc1
→ i	/	-11	6	-4	-6	0	8
65) CCCNC(=O)c1cc(C2CCCCN2C(=O)c2cc(F)ccc2C)on1 (stereo not given)
→ /	-1	/	/	-2	4	/	-15
66) Cc1noc(C)c1COC(=O)c1cc(=O)[nH]c2ccccc12
→ /	-13	0	4	3	4	-3	/
67) N#C/C(=C(/O)CCl)c1nc(-c2ccccc2)cs1
→ i	-16	9	-1	-14	-1	17	10
68) CC(C)CNS(=O)(=O)c1cc(C(=O)OC2CCOC2=O)c(Cl)cc1Cl (stereo not given)
→ i	-11	2	11	-1	2	-2	-2

Part of the list above in order of heavy-atom count, rising.
Each structure is followed by: Rce1 inhib	UUG fidelity	PABP FP inh	CSC inhib	MT1-MMP act inh	MT1-MMP act inh RFP	eIF4H FP inh	Env fusion inh
67) N#C/C(=C(/O)CCl)c1nc(-c2ccccc2)cs1
→ i	-16	9	-1	-14	-1	17	10
66) Cc1noc(C)c1COC(=O)c1cc(=O)[nH]c2ccccc12
→ /	-13	0	4	3	4	-3	/
54) C=CCNC(=O)C1CC1(c1ccc(C)cc1)c1ccc(C)cc1 (stereo not given)
→ i	-11	8	1	-3	-7	14	-1
62) Clc1cncc(Cl)c1NNc1c2ccccc2nc2ccccc12
→ i	/	0	12	7	-4	-1	9
68) CC(C)CNS(=O)(=O)c1cc(C(=O)OC2CCOC2=O)c(Cl)cc1Cl (stereo not given)
→ i	-11	2	11	-1	2	-2	-2
56) COc1ccc(NCC(O)Cn2cnc3c2c(=O)n(C)c(=O)n3C)cc1 (stereo not given)
→ i	/	10	-13	-2	2	-2	19
57) CCCCN(C)C(=O)c1cn(-c2cccc(OC)c2)c(=O)c2ccccc12
→ i	-2	5	4	2	-1	1	12
64) CCOC(=O)c1ccc(NC(=S)N(CCN2CCCCCC2)Cc2cccs2)cc1
→ i	/	-11	6	-4	-6	0	8
53) CCCCN(CC)CCNC(=O)Cn1cnc2sc(C)c(S(=O)(=O)N3CCC(C)CC3)c2c1=O
→ /	-16	0	-15	2	6	-3	6
60) C[C@H](CO)N1C[C@H](C)[C@@H](CN(C)S(=O)(=O)c2ccc(C#N)cc2)OCc2cn(nn2)CCCC1=O
→ /	-18&8	/	/	1	4	/	-23
61) Cc1ccccc1NC(=O)c1c(C)nc(SCC(=O)OCc2ccccc2)c(C#N)c1-c1ccc(F)cc1
→ i	/	-4	-8	-2	-1	-12	/
